MLL AF4-AF9 inh = MLL-AF4/AF9 protein interaction inhibition | P42568 | hit rate 0.47% among 350,000 | AlphaScreen, biotin-AF4 peptide binding to FLAG-AF9 | inhibition, % at 10 µM | AID 651704;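 active means every replicate reaching a set inhibition limit, whatever the replicate mean, cut at about 25% in these data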;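 further: 0% = plate neutral control median and 100% = total signal loss; the record names both 10 and 1 µM as test concentration; the first replicate is given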
Target sequence (P42568 whole entry, looked up): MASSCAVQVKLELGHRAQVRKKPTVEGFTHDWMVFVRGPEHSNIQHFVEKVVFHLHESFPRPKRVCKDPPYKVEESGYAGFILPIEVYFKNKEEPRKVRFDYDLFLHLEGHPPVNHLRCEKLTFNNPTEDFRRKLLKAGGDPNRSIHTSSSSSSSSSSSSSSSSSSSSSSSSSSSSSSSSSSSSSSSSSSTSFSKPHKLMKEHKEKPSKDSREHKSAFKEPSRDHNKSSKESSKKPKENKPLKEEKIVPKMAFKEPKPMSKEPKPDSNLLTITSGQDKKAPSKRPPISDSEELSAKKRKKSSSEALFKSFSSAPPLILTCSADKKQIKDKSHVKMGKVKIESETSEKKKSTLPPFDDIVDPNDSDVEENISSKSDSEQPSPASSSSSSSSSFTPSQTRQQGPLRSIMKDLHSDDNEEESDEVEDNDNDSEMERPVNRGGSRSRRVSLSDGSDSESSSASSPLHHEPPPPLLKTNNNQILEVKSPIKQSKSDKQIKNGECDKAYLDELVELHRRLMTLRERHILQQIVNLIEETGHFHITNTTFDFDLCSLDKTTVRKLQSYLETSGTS
rRNA inh HTS = inhibitors of bacterial rRNA selective over humanized ribosomes. E. coli WT GFP vs humanized-ribosome RFP mutants, fluorescence, 24 h; stronger effect = lower value; DMSO median 0, no signal -100. GFP signal change (wild-type ribosome), % (no concentration beside the values). hit rate 1.6% among 350,000. AID 720706;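 active means significant combined selectivity score with lowered wild-type GFP, culture density cut under 30%, mutant RFP and density less affected; inactive means any of these conditions unmet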; further: one replicate is shown; some compounds called inactive have numbers as strong as hits
rRNA inh HTS OD600 = also measured in rRNA inh HTS; calls as there; OD600 change, %; measured here: OD600 growth;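 optical density of the mix in the first replicate; 0 = DMSO median and -100 = no signal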
rRNA inh HTS RFP = recorded beside rRNA inh HTS, whose call it bears; RFP signal change, %; measured here: RFP humanized mutant strains;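 first replicate; 0 = DMSO median and -100 = no signal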
Active calls of the source: *.

SMILES	MLL AF4-AF9 inh	rRNA inh HTS	rRNA inh HTS OD600	rRNA inh HTS RFP
CCCN(C)C[C@H]1Oc2cc(-c3ccccc3OC)ccc2S(=O)(=O)N([C@@H](C)CO)C[C@H]1C	1.9	1.6	-2.0	-0.5
COc1ccc(C#Cc2cnc3c(c2)C(=O)N([C@@H](C)CO)C[C@H](C)[C@@H](CN(C)C(=O)CN(C)C)O3)cc1	14.8	3.7	11.3	3.9
C[C@@H]1CN([C@@H](C)CO)C(=O)c2cc(C#CCc3ccccc3)cnc2O[C@H]1CN(C)CC1CCCC1	20.2	-2.1	-8.1	20.9
CC1C=NC(S(=O)(=O)N2CC[C@H]3[C@@H](CO)N(C)c4ccc(-c5cccc(F)c5)cc4[C@H]32)=N1 (some centres not stated)	0.2	-3.6	-9.8	7.6
CN1c2ccc(-c3ccccc3)cc2[C@H]2[C@H](CCN2C(=O)CC2CC2)[C@@H]1CO	-2.6	-6.9	-3.6	3.8
COc1ccc(CN(C)C[C@@H]2OCCCC[C@H](C)Oc3ccc(NS(=O)(=O)c4ccc(F)cc4)cc3C(=O)N([C@H](C)CO)C[C@@H]2C)cc1	13.2	3.1	-7.1	2.5
C[C@H](CO)N1C[C@H](C)[C@@H](CN(C)S(=O)(=O)c2ccc(C#N)cc2)OCc2ccccc2-c2c(n(C)c3ccccc23)C1=O	0.9	-1.7	0.6	-2.1
C[C@@H]1CCCCO[C@H](CN(C)S(=O)(=O)c2cn(C)cn2)[C@H](C)CN([C@@H](C)CO)C(=O)c2cc(NC(=O)NC3CCCCC3)ccc2O1	-0.1	-1.8	-3.3	-1.4
O=C(Nc1cccc(F)c1)N1C[C@@H]2[C@H](c3ccccc31)[C@H](CO)N2C(=O)c1ccccn1	-2.5	-51.5	-73.2	-12.1
Cn1ccc2c(-c3cccnc3)cc3c(c21)C1CCC3O1 (configuration not stated)	0.1	-4.1	-14.0	-3.3
CCCc1cn(CC[C@H]2CC[C@@H](NC(=O)Cc3cccnc3)[C@H](CO)O2)nn1	-1.5	1.3	0.9	-2.7
O=C(Cc1ccncc1)NCC[C@@H]1CC[C@@H](NC(=O)C2CCCC2)[C@H](CO)O1	-1.9	2.3	13.3	-0.3

3 compounds from above, arranged by length of the SMILES, lowest first.
SMILES	MLL AF4-AF9 inh	rRNA inh HTS	rRNA inh HTS OD600	rRNA inh HTS RFP
CN1c2ccc(-c3ccccc3)cc2[C@H]2[C@H](CCN2C(=O)CC2CC2)[C@@H]1CO	-2.6	-6.9	-3.6	3.8
C[C@@H]1CN([C@@H](C)CO)C(=O)c2cc(C#CCc3ccccc3)cnc2O[C@H]1CN(C)CC1CCCC1	20.2	-2.1	-8.1	20.9
COc1ccc(CN(C)C[C@@H]2OCCCC[C@H](C)Oc3ccc(NS(=O)(=O)c4ccc(F)cc4)cc3C(=O)N([C@H](C)CO)C[C@@H]2C)cc1	13.2	3.1	-7.1	2.5

The listing continues:
SMILES	MLL AF4-AF9 inh	rRNA inh HTS	rRNA inh HTS OD600	rRNA inh HTS RFP
Cn1c(=S)c2[nH]c(SCC3CCCO3)nc2n(C)c1=O (configuration not stated)	-2.7	10.9	-0.1	-1.4
C[C@@H]1CN([C@H](C)CO)C(=O)CCCn2cc(nn2)CO[C@H]1CN(C)Cc1cccnc1	-13.5	2.4	2.6	-0.9
Cc1noc(C)c1S(=O)(=O)Nc1ccc2c(c1)C(=O)N([C@@H](C)CO)C[C@H](C)[C@@H](CN(C)S(=O)(=O)c1ccc(F)cc1)OCCCC[C@H](C)O2	-0.3	-0.6	-1.7	5.7
O=C(NCc1ccccc1Cl)c1ccc2sc([C@H]3C[C@H](O)[C@@H](CO)O3)nc2c1	-1.5	-1.6	5.6	-2.9
C[C@H](CO)N1C[C@H](C)[C@@H](CN(C)C(=O)Nc2ccc(C(F)(F)F)cc2)OCCCC[C@H](C)Oc2ccc(NS(=O)(=O)c3ccc(F)cc3)cc2C1=O	-4.5	1.4	11.9	-4.4
O=C(C[C@H]1C[C@H]2c3cc(NC(=O)C4CCC4)ccc3O[C@H]2[C@H](CO)O1)NCC1CC1	-2.0	4.2	16.5	-1.4
CN1C(=O)c2cc(NC(=O)C3CCCCC3)ccc2OC[C@H]2O[C@@H](CC(=O)NCC3CCCCC3)CC[C@H]21	-2.0	-5.0	-16.9	0.2
C/C=C1\NC(=O)[C@H](C)NC(=O)[C@@H](NC(=O)[C@H](Cc2ccc(O)cc2)NC(=O)[C@@H](NC(=O)/C(C)=C/C)C(C)C)[C@@H](C)OC(=O)[C@H](CCCc2ccc(O)cc2)NC(=O)[C@@H](CCC(=O)OC)NC1=O	1.8	-29.0	-36.3	-3.8
O=C(N[C@@H]1CC[C@@H](CCn2cc(-c3ccccc3)nn2)O[C@@H]1CO)c1ccccc1F	0.9	-4.2	5.3	-0.5
CCOC(=O)C1(C)CCCN(C(=O)c2cccc(Cl)c2)C1 (configuration not stated)	-0.2	4.1	2.8	-0.4
CC(C)C#Cc1ccc([C@H]2[C@@H](CO)N3C(=O)CN(C(=O)C4CCCCC4)C[C@H]23)cc1	-8.0	5.6	-3.8	18.4
CSCCC(C(=O)Nc1c(C)cccc1C)N1CCN(c2ccc(C(F)(F)F)cn2)CC1 (configuration not stated)	-1.4	4.4	11.3	-2.1
COC(=O)[C@H](CC(C)C)N1Cc2cc(OC)cc(OC)c2-c2ccccc2S1(=O)=O	0.6	-0.8	-3.8	0.1
C/C=C/c1cnc2c(c1)C(=O)N([C@@H](C)CO)C[C@@H](C)[C@H](CN(C)C(=O)Cc1cccnc1)O2	-0.2	2.3	11.5	-2.8
CN(C)C(=O)c1cccc(-c2ccc([C@@H]3[C@@H](CO)N4CCCCN(C(=O)C5CCC5)C[C@H]34)cc2)c1	6.2	4.2	2.0	-1.4
C[C@@H]1CN([C@H](C)CO)C(=O)Cc2cc(NC(=O)c3ccncc3)ccc2O[C@@H]1CN(C)CC1CCCCC1	0.2	-0.7	3.3	-2.0
C[C@@H]1CCCCO[C@@H](CN(C)C(=O)Nc2ccc3c(c2)OCO3)[C@@H](C)CN([C@@H](C)CO)C(=O)c2cc(NC(=O)CCC(F)(F)F)ccc2O1	0.9	4.4	-2.5	-0.1
C[C@@H]1CN([C@@H](C)CO)C(=O)CCCn2nncc2CO[C@@H]1CN(C)Cc1ccc2c(c1)OCCO2	-0.3	-0.3	-1.9	-1.0
CCNC(=O)[C@@H]1[C@@H](CO)[C@@H]2Cn3c(ccc(-c4ccncc4)c3=O)[C@@H]2N1Cc1ccccc1	-12.2	2.5	-1.7	-1.3
C[C@@H]1CN([C@H](C)CO)C(=O)Cc2cc(NC(=O)C3CCCCC3)ccc2O[C@H]1CN(C)CC1CCCCC1	1.2	-2.6	-0.5	1.9
C[C@@H]1CN([C@@H](C)CO)C(=O)c2cccc(NS(=O)(=O)c3ccc(Cl)cc3)c2O[C@@H]1CN(C)C(=O)Nc1ccc2c(c1)OCO2	1.9	-1.9	-6.2	-0.9
C[C@H]1CN([C@@H](C)CO)C(=O)Cc2cc(NC(=O)Nc3ccc(C(F)(F)F)cc3)ccc2O[C@H]1CN(C)Cc1ccc2c(c1)OCO2	0.6	2.0	-17.4	3.8
C=CCCC(=O)N1C[C@@H](CO)[C@@H](NC)C[C@H]1c1ccccc1Br	1.9	14.0	14.8	-1.8
CNC[C@H]1Oc2ccc(NC(=O)Nc3ccc(OC)cc3)cc2CC(=O)N([C@@H](C)CO)C[C@@H]1C	-9.7	5.1	18.6	-2.1

Among those listed so far, these have a Cl atom:
SMILES	MLL AF4-AF9 inh	rRNA inh HTS	rRNA inh HTS OD600	rRNA inh HTS RFP
O=C(NCc1ccccc1Cl)c1ccc2sc([C@H]3C[C@H](O)[C@@H](CO)O3)nc2c1	-1.5	-1.6	5.6	-2.9
CCOC(=O)C1(C)CCCN(C(=O)c2cccc(Cl)c2)C1 (configuration not stated)	-0.2	4.1	2.8	-0.4
C[C@@H]1CN([C@@H](C)CO)C(=O)c2cccc(NS(=O)(=O)c3ccc(Cl)cc3)c2O[C@@H]1CN(C)C(=O)Nc1ccc2c(c1)OCO2	1.9	-1.9	-6.2	-0.9

Next part.
SMILES	MLL AF4-AF9 inh	rRNA inh HTS	rRNA inh HTS OD600	rRNA inh HTS RFP
CC=Cc1ccc2n(c1=O)C[C@H]1[C@H](CO)[C@@H](C(=O)NCC)[C@@H]2N1CCC(F)(F)F (mixture of isomers)	2.9	1.8	1.2	-0.2
COc1ccc(CCCNC(=O)C2(C)Cc3c(-c4cccc(C(N)=O)c4)ccnc3O2)cc1 (configuration not stated)	-1.7	11.6	-3.1	4.5
N#C[C@H]1[C@@H](c2ccc(C3=CCCCC3)cc2)[C@@H](CO)N1C(=O)c1ccccn1	-1.6	-0.1	-3.4	-1.7
CCCC#Cc1cnc2c(c1)C(=O)N([C@@H](C)CO)C[C@H](C)[C@@H](CN(C)C(=O)Nc1c(C)noc1C)O2	-1.6	5.7	15.8	-1.5
C[C@@H]1CCCCO[C@H](CN(C)C(=O)Cc2ccccc2)[C@@H](C)CN([C@H](C)CO)C(=O)c2cc(NS(=O)(=O)c3ccc(Cl)cc3)ccc2O1	-1.3	3.0	-3.1	1.6
C[C@@H]1CN([C@H](C)CO)C(=O)Cc2cc(NC(=O)CCC(F)(F)F)ccc2O[C@@H]1CN(C)C(=O)Nc1ccc2c(c1)OCO2	-2.8	1.9	8.4	-1.5
C[C@@H]1CN([C@H](C)CO)C(=O)c2cc(NC(=O)c3ccncc3)ccc2O[C@@H]1CN(C)S(=O)(=O)c1ccc(F)cc1	0.5	-0.4	-3.8	-1.4
CC(C)NC(=O)Nc1ccc2c(c1)C(=O)N([C@H](C)CO)C[C@@H](C)[C@@H](CN(C)C)OCCCC[C@@H](C)O2	-1.7	1.4	5.9	2.0
CCC(=O)N1CCC(C)(C(=O)Nc2ccc3c(c2)OCO3)C1 (configuration not stated)	-0.6	4.6	12.5	-0.5
C[C@H](CO)N1C[C@H](C)[C@H](CN(C)C(=O)Nc2cccc3ccccc23)Oc2ccc(NC(=O)CCCN(C)C)cc2C1=O	-2.3	1.9	4.3	-1.4
CCC(=O)N[C@@H]1CC[C@@H](CC(=O)NCc2ccc(OC)cc2)O[C@@H]1CO	-1.5	5.1	-1.0	-2.4
C[C@@H]1CCCCO[C@H](CN(C)C(=O)c2ccncc2)[C@H](C)CN([C@H](C)CO)C(=O)c2cc(NS(=O)(=O)c3ccccc3)ccc2O1	-2.0	-3.5	2.8	1.9
CO[C@H]1CN(C)C(=O)c2cc(NC(=O)Nc3ccccc3)ccc2OC[C@@H](C)N(C(C)=O)C[C@H]1C	2.7	-0.6	5.3	0.4
COCC(=O)N1C[C@@H](C)[C@H](OC)CN(C)C(=O)c2cc(NC(=O)c3ccccc3)ccc2OC[C@@H]1C	-7.2	-0.2	-0.9	-0.4
C=CCNc1ncnc2c1ncn2[C@H]1CN(Cc2ccc3c(c2)OCO3)C[C@@H](CO)O1	-1.5	5.9	12.9	-1.0
COCC(=O)Nc1ccc2c(c1)C(=O)N(C)[C@H]1CC[C@@H](CC(=O)NCCc3ccccc3)O[C@@H]1CO2	-0.9	1.3	5.2	-1.7
C[C@@H]1CN([C@H](C)CO)C(=O)Cc2cc(NC(=O)NC3CCCCC3)ccc2O[C@H]1CN(C)Cc1ccc(-c2ccccc2)cc1	0.1	0.1	4.4	1.3
Cc1noc(C)c1NC(=O)Nc1ccc2c(c1)C(=O)N([C@H](C)CO)C[C@H](C)[C@H](CN(C)C(=O)c1ccccc1)OCCCC[C@H](C)O2	-4.3	0.0	-1.6	-0.6
CC(C)CC#Cc1ccc([C@H]2[C@@H](CO)N3CCCCN(C(=O)c4ccc5c(c4)OCO5)C[C@@H]23)cc1	1.5	3.4	-28.6	13.8
CCNC(=O)C1(C)CCN1CCC(=O)c1ccc(C)cc1 (configuration not stated)	1.9	14.3	10.4	0.9
C[C@@H]1CN([C@@H](C)CO)C(=O)c2cc(NC(=O)Cc3ccccc3)ccc2O[C@H]1CN(C)S(=O)(=O)c1cccs1	-20.9	0.4	2.8	-2.1
C[C@@H]1CN([C@H](C)CO)C(=O)c2cc(NS(=O)(=O)c3ccc(F)cc3)ccc2O[C@@H]1CN(C)C	-2.1	0.1	5.0	-1.3
CCCN(C)C[C@@H]1Oc2cc(C#Cc3ccccc3)ccc2S(=O)(=O)N([C@@H](C)CO)C[C@H]1C	1.1	-3.9	-13.5	7.8
C[C@H](CO)N1C[C@H](C)[C@@H](CN(C)S(C)(=O)=O)Oc2ccc(NC(=O)c3ccncc3)cc2CC1=O	-0.9	7.7	9.6	-0.1
CC1(c2nnnn2-c2ccc3c(c2)OCCO3)CCC(=O)N1Cc1cccnc1 (configuration not stated)	0.0	12.7	22.9	0.1
Cc1noc(C)c1NC(=O)N(C)C[C@H]1Oc2c(NS(=O)(=O)c3cccs3)cccc2C(=O)N([C@@H](C)CO)C[C@@H]1C	-2.9	1.4	3.6	-0.2
C[C@H](CO)N1C[C@H](C)[C@@H](CN(C)C(=O)Nc2ccccc2)Oc2c(NC(=O)Nc3ccc(F)cc3)cccc2C1=O	1.8	-0.3	0.2	-3.0
C[C@@H]1CN([C@H](C)CO)C(=O)Cc2cc(NC(=O)Cc3cn(C)c4ccccc34)ccc2O[C@H]1CN(C)C	-0.9	4.5	0.9	-0.3
COc1ccc(-n2nc3c(c2NC(=O)COc2ccccc2OC)CS(=O)(=O)C3)cc1	1.1	10.9	3.2	5.2
Cc1ccc(C2(C)NC(=O)N(CC(=O)N3CCN(S(=O)(=O)c4ccccc4[N+](=O)[O-])CC3)C2=O)cc1 (configuration not stated)	0.2	9.8	4.8	4.5
CCCN(C)C[C@H]1Oc2cc(C#CCN(C)C)ccc2S(=O)(=O)N([C@@H](C)CO)C[C@H]1C	9.5	2.8	6.7	0.4

Not all compounds are listed; the hit share may differ from the screen's.
